Compound activity: PubChem BioAssay, National Center for Advancing Translational Sciences (NCATS)
VACV mCherry inh – vaccinia inhibition (mCherry reporter); Vaccinia virus mCherry reporter infection, fluorescence; about a quarter of the inactives have no number; Potency, µM (titrated, usually from 36.5 µM), for inactives: top-dose activity change, negative = inhibition, hits mostly inhibitors; 0.63% of 310,000 active; active = well fitted inhibition curve with a large enough effect; inconclusive = small, poorly fitted or top-dose-only effect; inactive = no such curve, though single readings can be large or run the other way; tested in A549 cells; further: nearly all actives have a fitted effect of over 35% in size; inactives centre near -10
VACV Venus inh – inhibitors of vaccinia virus (Venus reporter) | Potency, µM (highest dose often 36.5 µM), without a hit: at the highest dose activity change, negative = inhibition, actives largely listed as inhibitors | Vaccinia virus Venus reporter expression, fluorescence | 0.46% of 330,000 active; active means well fitted inhibition curve with a large enough effect; inconclusive means small, poorly fitted or top-dose-only effect; inactive means no such curve, though single readings can be large or run the other way; tested in A549 cells; further: nearly all actives have a fitted effect of over 30% in size; inactives centre near -10
* marks the source's active call; other numbers are inactive results; i = inactive; u = inconclusive; x = not tested or not shown; [ ] = dose if it differs, or a comment. On the % scale 0 is the no-effect control and ±100 the full control effect; potency means the concentration at half of the fitted maximal effect.

SMILES | VACV mCherry inh | VACV Venus inh
O=C(CN1C(=O)/C(=C/c2cccc(Br)c2)SC1=S)NCCCN1CCOCC1 | 241.6%[activator] | 437.3%[activator]
Cc1cc(C)cc(N(C(=O)c2cccs2)C2C=CS(=O)(=O)C2)c1 (centres undefined) | -5.6% | -9.8%
COc1ccc(NC(=O)C2CCCN(S(=O)(=O)c3ccc4[nH]c(=O)ccc4c3)C2)cc1 (centres undefined) | -1.5% | -1.3%
Nc1ccc(N2CCN(c3ccc(Cl)c(Cl)c3)CC2)cc1 | u | -19.9%
O=C(NCc1ccccc1)C1C(=O)Nc2ccccc2C(=O)N1Cc1ccccc1 (centres undefined) | 5.9% | -2.2%
Cc1cccc(/C=N/Nc2nncc3ccccc23)c1 | -16.8% | -6.4%
O=S(=O)(NCc1ccco1)c1cnc(Cl)c(Br)c1 | -8.8% | -19.8%
CN(CC(=O)Nc1ccc(F)cc1)C(=O)c1cc([N+](=O)[O-])ccc1N1CCOCC1 | -13.3% | -9.6%
Cc1c(C=C2C(=O)N(C)C(=O)N(C)C2=O)c(=O)n(-c2ccccc2)n1C | -9.9% | -7.3%
O=[N+]([O-])c1cc(C(F)(F)F)ccc1NC1CCN(Cc2ccccc2)CC1 | i | -16.9%
O=C(NCc1cccnc1)C1CCCN(S(=O)(=O)c2ccc(Cl)cc2)C1 (centres undefined) | -24.0% | -20.2%
CNC(C(=O)c1ccccc1)C(OC)c1cccc([N+](=O)[O-])c1 (centres undefined) | i | -11.3%
CCOC(=O)N1CCC(NC(=O)c2ccc(CS(=O)c3cccc(C)c3)o2)CC1 (centres undefined) | i[7.34 µM] | -6.6%[7.34 µM]
O=C(CN1C(=O)c2ccccc2S1(=O)=O)NCc1ccc(F)cc1 | 5.2% | 1.9%
C[n+]1c2n(c3ccccc31)N=C(c1cc(C(C)(C)C)c(O)c(C(C)(C)C)c1)CS2 | u | 10µM*
N#CCc1ccc(C(=O)c2ccccc2F)s1 | x | 2.0%
Cc1ccc(C)c(OCC(=O)N2CCOCC2)c1 | -22.9% | -19.0%
O=C(CC1CC1)N[C@@H]1CC[C@@H](CCNS(=O)(=O)c2ccc(F)cc2)O[C@@H]1CO | i | -14.8%
COc1ccc(CNC(=O)c2cc3c(=O)n(Cc4ccc(OC)cc4)ccc3nc2C)cc1 | -25.8% | -25.1%
CC(C)CNC(=O)c1ccccc1NC(=O)CN(c1ccc2c(c1)OCCO2)S(C)(=O)=O | -4.8% | -22.3%

Gathered by group, those above containing two or more sulfur atoms
SMILES | VACV mCherry inh | VACV Venus inh
O=C(CN1C(=O)/C(=C/c2cccc(Br)c2)SC1=S)NCCCN1CCOCC1 | 241.6%[activator] | 437.3%[activator]
Cc1cc(C)cc(N(C(=O)c2cccs2)C2C=CS(=O)(=O)C2)c1 (centres undefined) | -5.6% | -9.8%

Following part
SMILES | VACV mCherry inh | VACV Venus inh
Cc1ccc(-n2ncc3c(=O)n(CC(=O)NC4CCCC4)cnc32)cc1C | i | -10.6%
CC(=O)c1c(C)[nH]c(C(=O)OCC(=O)Nc2sc3c(c2C#N)CCCC3)c1C | i | -17.0%
N/C(=N\OC(=O)c1ccc2c(c1)OCO2)c1cccnc1 | -3.6% | -0.9%
COc1ccccc1NC(=O)CCc1nc(-c2cccs2)no1 | -9.7% | 0.0%
CCn1nc(C)c(CNC(=O)C2CCC(=O)N(Cc3cccc(F)c3)C2)c1C (centres undefined) | -14.3% | -13.9%
CN1c2ccccc2Oc2c(c(=O)n(C)c(=O)n2C)C1c1cccc([N+](=O)[O-])c1 (centres undefined) | x | -8.3%
CC1CCN(S(=O)(=O)c2ccc3c(ccc(=O)n3CC(=O)Nc3cccc(F)c3)c2)CC1 | -14.2% | -8.0%
Nc1nc(SCc2ccccc2)c2[nH]cnc2n1 | u | -28.6%
CS(=O)(=O)NCc1nnc2n1-c1ccc(Cl)cc1C(c1ccccc1)=NC2 | -7.7% | -8.8%
Cc1cc(NC(=O)C2CC(c3ccc(Cl)cc3)=NO2)no1 (centres undefined) | -10.9% | -7.4%
C[C@@H]1O[C@H](C2CCCC2)Cc2[nH]c(=S)[nH]c(=O)c21 | -18.2% | -1.4%
Cc1ccc(NCC(=O)N/N=C/c2ccc(OC(=O)c3ccco3)cc2)cc1 | i | -10.3%
CN(C)c1ccc(C(=O)OCC(=O)NC2CCCCCC2)cc1 | -3.8% | -7.8%
O=C(COC(=O)c1ccco1)NCc1ccccc1Cl | -26.8% | -8.4%
COCCCNC(=O)CSc1nc(-c2ccccc2)[nH]c1-c1ccc(C)cc1 | -2.6% | -2.9%
COc1cccc(/C=c2/[nH]c(=O)/c(=C\c3cccc(OC)c3OC)[nH]c2=O)c1OC | -6.9% | -18.5%
O=C1CC(N2CCCCCC2)C(=O)N1c1ccc(F)cc1 (centres undefined) | i | 1.1%
CCOc1cccc(C(=O)Nc2cccc(-c3nnc(-c4ccccc4)o3)c2)c1 | -13.4% | -15.8%
CCCCN1CCc2nc(N3CCN(C)CC3)ncc2C1 | -5.4% | -1.6%
CNc1cncc(-c2cnn(CC(C)C)c2)n1 | i | -14.8%
O=C(N/N=C/c1cn(-c2cccs2)nc1-c1ccccc1)c1ccccc1Br | i | u
CCOC(=O)C1(Cc2cccc(OC)c2)CCN(Cc2cnc(SC)nc2)CC1 | i | -8.4%
Cc1ccc(-n2nc(C)c(C3(O)C(=O)N(C(C)C)c4ccccc43)c2N)cc1 (centres undefined) | -17.7% | -3.0%
COc1cc(NC(=O)c2nc(-c3ccc(Cl)cc3)n3c2CCCCC3)cc(OC)c1OC | 6.5% | -10.5%
COc1ccc(Nc2nnc(SCC(=O)N3CCCC3)s2)cc1 | x | -14.6%
COc1ccc(N(C)C(=O)CCn2cnc3onc(-c4ccc(F)cc4)c3c2=O)c(OC)c1 | -3.8% | -1.2%
COC(=O)c1ccc(NC(=O)CN2CCC(NC(=O)c3ccccc3F)CC2)cc1 | i | -9.5%
CN1CCN(C(=O)C2=C[C@@H](C(C)(C)C)C[C@@H](OCc3ccc(CO)cc3)O2)CC1 | -24.6% | -24.6%
c1cncc(OC2CCN(Cc3ccc4c(c3)CN(Cc3ccc5c(c3)OCCO5)CCO4)CC2)c1 | -23.2% | -16.9%
COc1ccc(Cl)cc1NC(=O)CN1C(=O)NC2(CCCC2)C1=O | i | -21.1%
N/C(Cc1ccc(Cl)cc1Cl)=N\OC(=O)Cc1ccccc1 | -15.8% | -21.4%
COc1ccc2c(c1)C(C)CC(C)(C)N2C(=O)CSc1nc2ccccc2s1 (centres undefined) | -27.2% | -24.3%
O=C(CSc1ncnc2sc3c(c12)CCCC3)c1ccccc1 | -21.4% | -10.6%
CN(CCC1CCOCC1)C(=O)C1CCC(=O)N(CCc2ccccc2)C1 (centres undefined) | -4.5% | -15.2%
CCCCC(=O)Nc1cccc(-c2cn3ccsc3n2)c1 | x | -12.5%
Cn1cccc1/C=C1\SC(=O)N(CC(=O)Nc2ccc(Cl)cc2)C1=O | i | -12.1%
COc1ccc(OC)c(NC(=O)CSc2nc3cccnc3n2C)c1 | u | u
COc1ccccc1C(=O)NC(=S)N1CCc2ccccc21 | -5.2% | -11.3%
CC(=O)Nc1ccc(-c2ccnc3c2CC(C(=O)Nc2cccc(OC(F)(F)F)c2)O3)cc1 (centres undefined) | -24.0% | -19.0%
Cc1ccc(CN2CCSc3ccc(C(=O)NCC(C)c4ccccc4)cc32)cc1 (centres undefined) | -16.6% | -4.4%

3 successive records out of the list so far:
SMILES | VACV mCherry inh | VACV Venus inh
O=C(N/N=C/c1cn(-c2cccs2)nc1-c1ccccc1)c1ccccc1Br | i | u
CCOC(=O)C1(Cc2cccc(OC)c2)CCN(Cc2cnc(SC)nc2)CC1 | i | -8.4%
Cc1ccc(-n2nc(C)c(C3(O)C(=O)N(C(C)C)c4ccccc43)c2N)cc1 (centres undefined) | -17.7% | -3.0%

Quoted from the listing:
Value for Cc1cc(NC(=O)C2CC(c3ccc(Cl)cc3)=NO2)no1 (centres undefined) in VACV mCherry inh: -10.9%
Value for Cc1ccc(C)c(OCC(=O)N2CCOCC2)c1 in VACV Venus inh: -19.0%
Value for Cc1ccc(-n2nc(C)c(C3(O)C(=O)N(C(C)C)c4ccccc43)c2N)cc1 (centres undefined) in VACV Venus inh: -3.0%

Carrying on.
SMILES | VACV mCherry inh | VACV Venus inh
COc1ccccc1-c1ccc(SCC(=O)NC2CCCC2)nn1 | -13.6% | -6.1%
CN=C(NC(=O)Nc1c(C)cccc1C)NC(=O)Nc1c(C)cccc1C | -2.2% | -8.5%
CN(Cc1ccccc1)c1nc(CN2CCOCC2)nc2scc(-c3ccccc3)c12 | -26.8% | -17.7%
CCN(CC(=O)Nc1ccc(NC(C)=O)cc1)C(=O)Cc1ccccc1F | -10.3% | 2.0%
CCN1C(=O)C(=O)N(CC(=O)Nc2cccc(C(F)(F)F)c2)C1=O | -15.1% | -7.0%
Cc1cccc(N2CCN(C(=O)CS(=O)(=O)Cc3nc(-c4ccccc4F)oc3C)CC2C)c1 (centres undefined) | -6.5% | -26.3%
Cc1c2ccccc2nc2c(F)c(NC(C)C)c(F)c(F)c12 | -10.5% | 9.4%
Cc1nc(CC(=O)N2CCN(S(=O)(=O)c3ccccc3C#N)CC2)cs1 | -9.3% | -9.9%
Cc1ccc(OCCC(=O)OC(C)C(=O)NC2CC2)cc1 (centres undefined) | i | -5.3%
Cc1ccc(N(Cc2ccc([N+](=O)[O-])cc2)C(=O)c2ccco2)cc1 | -5.8% | -10.7%
O=S(=O)(Nc1cccc2c1ccc1cccn12)c1cccs1 | -25.7% | -17.4%
Clc1ccc(-n2nnc(-c3nccs3)n2)cc1Cl | -4.5% | -15.6%
CCCCn1nc2cc(C(=O)NCc3ccc(C(F)(F)F)cc3C(F)(F)F)ccc2c1OCC | -0.3% | u
CC1CC(C)CN(CCCNC(=O)Cn2ncc3c(=O)oc4ccccc4c32)C1 (centres undefined) | -14.6% | -10.5%
CCC(=Nc1ccc(OC)cc1OC)c1c(O)n(C)c(=O)n(C)c1=O | -14.3% | -11.1%
COc1ccc(NS(=O)(=O)c2cccc(Cl)c2Cl)cc1S(=O)(=O)N1CCCCC1 | -6.2% | -17.2%
O=C(O)c1cccc(O)c1O | -23.2% | -12.2%
CCc1nnc(SCc2cccc(Cl)c2)c2cc3sccc3n12 | -8.9% | -9.9%
CCOC(=O)C1CCCN(C(=O)c2ccc([N+](=O)[O-])c(C)c2)C1 (centres undefined) | -14.8% | -23.9%
Cc1ccc2[nH]c(CSc3nnc(NC(=O)c4ccc(Cl)cc4)s3)cc(=O)c2c1 | -1.9% | -0.7%

Molecules shown so far containing an aryl thioether with sulfur outside any ring (10):
SMILES | VACV mCherry inh | VACV Venus inh
Nc1nc(SCc2ccccc2)c2[nH]cnc2n1 | u | -28.6%
COCCCNC(=O)CSc1nc(-c2ccccc2)[nH]c1-c1ccc(C)cc1 | -2.6% | -2.9%
CCOC(=O)C1(Cc2cccc(OC)c2)CCN(Cc2cnc(SC)nc2)CC1 | i | -8.4%
COc1ccc(Nc2nnc(SCC(=O)N3CCCC3)s2)cc1 | x | -14.6%
COc1ccc2c(c1)C(C)CC(C)(C)N2C(=O)CSc1nc2ccccc2s1 (centres undefined) | -27.2% | -24.3%
O=C(CSc1ncnc2sc3c(c12)CCCC3)c1ccccc1 | -21.4% | -10.6%
COc1ccc(OC)c(NC(=O)CSc2nc3cccnc3n2C)c1 | u | u
COc1ccccc1-c1ccc(SCC(=O)NC2CCCC2)nn1 | -13.6% | -6.1%
CCc1nnc(SCc2cccc(Cl)c2)c2cc3sccc3n12 | -8.9% | -9.9%
Cc1ccc2[nH]c(CSc3nnc(NC(=O)c4ccc(Cl)cc4)s3)cc(=O)c2c1 | -1.9% | -0.7%

Next part:
SMILES | VACV mCherry inh | VACV Venus inh
Cc1ccccc1OCCN1C(=O)C(=O)c2cccc(C)c21 | i | -9.6%
CCCC(=O)c1ccc(N2CCN(C(=O)c3ccc(Br)cc3)CC2)c(F)c1 | -12.2% | -4.1%
O=C(CSCc1ccc([N+](=O)[O-])cc1)Nc1ccccc1C(=O)O | -4.1% | -8.2%
CC(C)c1ccc(/C=N/NC(=O)c2nnn(-c3nonc3N)c2CSC2=NCCS2)cc1 | u | u
C/C(=C\C(=O)c1ccccc1)Nc1ccc(Cl)c(Br)c1 | i | -11.8%
O=C(c1ccccc1)c1ccccc1NC(=O)c1ccccc1C(=O)O | -6.2% | -4.0%
O=C(COc1ccccc1Cl)NCCCNC(=O)c1cnccn1 | -7.5% | 0.5%
Cc1ccc(C)c(CNS(=O)(=O)c2c(C)[nH]c(C)c2C(=O)N2CCCC2)c1 | -22.1% | -21.4%
